# HPGD block = qHTS Assay for Inhibitors of HPGD (15-Hydroxyprostaglandin Dehydrogenase); Potency, µM, for the others: top-dose activity change, negative = inhibition, actives largely listed as inhibitors; purified HPGD, NADH fluorescence kinetic, PGE2 substrate; 15-hydroxyprostaglandin dehydrogenase [NAD(+)] (Homo sapiens), P15428; actives 4.3% (n = 150,000); AID 894, 2007; active = well fitted inhibition curve with a large enough effect (not every such curve was filed as active); inconclusive = small, poorly fitted or top-dose-only effect, or another doubt; inactive = no such curve, though single readings can be large or run the other way;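 also: top concentration of the series not given in the record; plate controls included wells without enzyme; inactives centre near -10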
# Target sequence (P15428 whole entry, looked up): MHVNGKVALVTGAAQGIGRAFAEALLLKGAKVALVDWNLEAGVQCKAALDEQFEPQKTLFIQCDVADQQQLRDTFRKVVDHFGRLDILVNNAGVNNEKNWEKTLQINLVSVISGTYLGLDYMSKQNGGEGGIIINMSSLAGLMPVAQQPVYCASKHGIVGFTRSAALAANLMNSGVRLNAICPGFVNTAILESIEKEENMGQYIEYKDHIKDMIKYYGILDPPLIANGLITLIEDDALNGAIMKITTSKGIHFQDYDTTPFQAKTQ
#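 NADH formation kinetics: reaction with 30 uM PGE2 and 1 mM NAD+ (final), 20 nM enzyme, Tris-HCl pH 8 with Tween 20, after 15 min compound preincubation at room temperature. Fluorescence change, last versus first of five reads.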
# * marks the source's active call; other numbers are inactive results; ? = inconclusive; & = joins results of further samples. % is scaled to controls: 0 for no effect and ±100 for the full control effect; potency is read from the fitted curve at half-maximal effect. The list is partial; count on the stated rates, not on these rows.
SMILES,HPGD block
CC[C@]1(c2ncc[nH]2)Cc2ccccc2O1,-8.4%
COc1ccc(Br)cc1C(=O)Nc1ccc(NC(=O)c2ccco2)cc1,?
CN(C)S(=O)(=O)c1ccc(NS(=O)(=O)/C=C/c2ccccc2)cc1,-12.4%
OC(CN1CCCCC1)CN(c1ccccc1)c1ccccc1 (stereo not drawn),-12.5%
COc1ccc(N2CCC(CNC(=S)Nc3cccc(OC)c3)C2)cc1 (stereo not drawn),-7.8%
COC(=O)c1ccc(-c2ccc(CNCC(O)c3ccccc3)o2)cc1 (stereo not drawn),-23.4%
Cn1cccc1C(=O)NC(=O)COC(=O)c1ccc(O)cc1,-18.7%
CCn1c(NC(=O)c2nn(C)cc2Br)nc2ccccc21,-7.7%
CCn1nnnc1-c1ccc(OC)c(S(=O)(=O)Nc2ccc(C)c(C)c2)c1,-6.2%
CCn1c(SCC(=O)NC2CCCc3ccccc32)nnc1-c1cccs1 (stereo not drawn),-8.9%
Cc1ccc2c(c1)C(O)(CC(=O)c1cccnc1)C(=O)N2 (stereo not drawn),-5.0%
CN(C(=O)c1ccc(NC(=O)C2CC=CCC2C(=O)O)cc1)c1ccccc1 (stereo not drawn),-4.9%
CCOCCn1c(N2CCN(c3ccc(OC)cc3)CC2)nc2c1c(=O)n(C)c(=O)n2C,-10.7%
O=C(CC1(O)C(=O)Nc2cc(Cl)cc(Cl)c21)c1ccccc1O (stereo not drawn),-7.7%
CCOC(=O)/C=C1\SCC(=O)N1CC(=O)NC(c1ccccc1)c1ccccc1,-4.0%
Oc1cccc(Nc2ccccc2)c1,-4.3%
O=C(Sc1nnc(-c2ccccc2)o1)N1c2ccccc2Sc2ccccc21,14.1µM*
COc1ccc(C(=O)c2coc(-c3ccccc3C(=O)O)c2C(=O)O)cc1,-11.3%
COc1ccccc1N1CCN(c2nc3ccccn3c(=O)c2C=O)CC1,-6.2%
Cc1ccccc1-n1nnnc1Sc1nnnn1-c1ccccc1,-1.4%

# 3 entries from above, ordered by count of non-hydrogen atoms, highest first:
SMILES,HPGD block
CCOCCn1c(N2CCN(c3ccc(OC)cc3)CC2)nc2c1c(=O)n(C)c(=O)n2C,-10.7%
CCOC(=O)/C=C1\SCC(=O)N1CC(=O)NC(c1ccccc1)c1ccccc1,-4.0%
Cc1ccccc1-n1nnnc1Sc1nnnn1-c1ccccc1,-1.4%

# Next results:
SMILES,HPGD block
COc1ccc(-c2nn(-c3ccccc3)cc2/C=C/C(=O)OCC(=O)Nc2cccc(C#N)c2)cc1,?
CCOc1ccccc1-n1nnnc1SCc1nc2ccccc2s1,-13.1%
CCN(CC)c1ccc(NC(=O)Cn2cc3c(n2)CCC(C)C3)c(C)c1 (stereo not drawn),-13.2%
O=C(CSc1nnc2ccc3ccccc3n12)N1CCOCC1,?
COC(=O)c1cccc(CSc2nc3ccccc3[nH]2)c1,-18.1%
O=C(NCCc1c[nH]c2ccccc12)C1CCN(c2nnc(N3CCCC3=O)s2)CC1,-6.4%
Cc1ccc(N)cc1-n1c(C)ccc1C,-10.9%
O=C(NC(=O)N1CCOCC1)c1ccccc1,-9.9%
C/C(=N\NC(=S)NC1CCCCC1)c1ccc(C#N)cc1,-2.2%
COCCCn1c(SCc2cccc(OC)c2)nc2cc(OC)c(OC)cc2c1=N,-29.2%
Cc1ccc2c(c1)CCCN2C(=O)Nc1ccc2c(c1)OCO2,-17.1%
CCOc1ccc2nc(/N=C/c3nc(-c4ccc(Br)cc4)oc3O)sc2c1,-9.3%
CCCCC1=CC2=C(c3ccco3)C(=O)C(C)(OC(=O)c3ccc(Cl)nc3)C(=O)C2=CO1 (stereo not drawn),-12.1%
CCOC(=O)c1c(-c2ccccc2)csc1NC(=O)c1ccc(S(=O)(=O)N2CC(C)OC(C)C2)cc1 (stereo not drawn),?
CC1(C)CC(=O)C(C(c2ccccc2F)C2C(=O)CC(C)(C)CC2=O)C(=O)C1,-13.3%
COc1ccccc1Nc1nnc(SCC(=O)NC(=O)Nc2ccc3c(c2)OCCO3)s1,?
N#C/C(=C/c1ccccc1[N+](=O)[O-])c1nnc2n1CCCCC2,2.51µM*
Cc1ccc(OCC(=O)N2N=C(C(F)(F)F)CC2(O)C(C)(C)C)cc1C (stereo not drawn),-5.4%
Clc1ccccc1C1CC(c2ccccc2)Nc2ncnn21 (stereo not drawn),-0.8%
CC[C@@]1([C@@H]2O[C@@H]([C@H]3O[C@@](O)(CO)[C@H](C)C[C@@H]3C)C[C@@H]2C)CC[C@H]([C@]2(C)CC[C@]3(C[C@H](O)[C@@H](C)[C@@H]([C@@H](C)[C@@H](OC)C(C)C(=O)O)O3)O2)O1 (stereo partly drawn),-8.1%

# Fetched by compound from the entries so far, six records:
SMILES,HPGD block
O=C(Sc1nnc(-c2ccccc2)o1)N1c2ccccc2Sc2ccccc21,14.1µM*
CCOC(=O)/C=C1\SCC(=O)N1CC(=O)NC(c1ccccc1)c1ccccc1,-4.0%
CCN(CC)c1ccc(NC(=O)Cn2cc3c(n2)CCC(C)C3)c(C)c1 (stereo not drawn),-13.2%
Cn1cccc1C(=O)NC(=O)COC(=O)c1ccc(O)cc1,-18.7%
COc1ccccc1N1CCN(c2nc3ccccn3c(=O)c2C=O)CC1,-6.2%
Cc1ccccc1-n1nnnc1Sc1nnnn1-c1ccccc1,-1.4%

# (list continues)
SMILES,HPGD block
COc1ccc(NC(=O)CNS(=O)(=O)c2cccs2)c(OC)c1,-7.0%
COC(=O)c1cn(CC(=O)NC2CCCCC2)c2ccccc12,-9.2%
Cc1occc1-c1nnc(SCC(=O)Nc2nccs2)n1CCc1ccccc1,-8.2%
CCCCNC(=O)c1c(N)n(/N=C/c2ccccn2)c2nc3ccccc3nc12,-10.8%
CON(C)c1nc(Oc2ccc(=O)[nH]n2)nc(N(C)C)n1,-14.2%
CCOC(=O)COc1ccc(Oc2nc(C)cc(OC)n2)nn1,-0.5%
CCNC(=O)CN(c1ccc(OC)c(OC)c1)S(=O)(=O)c1ccccc1,-1.3%
CC(=O)C1C(c2ccncc2)NC(=O)NC1(O)C(F)(F)F (stereo not drawn),2.9%
CCCCC/C=C\C/C=C\C/C=C\CCCCCCC(=O)NC(C)C(=O)O (stereo not drawn),-5.4%
O=C(NC1CCCCC1)C(c1ccc(F)cc1)N(Cc1ccco1)C(=O)Cn1nnc2ccccc21 (stereo not drawn),-4.7%

# 3 of the entries above in order of the HPGD block value, lowest first:
SMILES,HPGD block
CON(C)c1nc(Oc2ccc(=O)[nH]n2)nc(N(C)C)n1,-14.2%
CCOC(=O)COc1ccc(Oc2nc(C)cc(OC)n2)nn1,-0.5%
CC(=O)C1C(c2ccncc2)NC(=O)NC1(O)C(F)(F)F (stereo not drawn),2.9%

# (list continues)
SMILES,HPGD block
Cc1ccc(NC(=O)CCC(C(=O)O)N2C(=O)c3ccccc3C2=O)cc1 (stereo not drawn),-5.8%
Cc1cc(=O)oc2cc(OCC(=O)OCC(=O)Nc3ccccc3C(C)C)ccc12,?
Cc1ccccc1-n1c(SCc2ccccn2)nc2n[nH]c(C)c2c1=N,-7.4%
COc1cccc(Oc2cncnc2-c2ccc(OC)cc2O)c1,-9.8%
Nc1cccnc1Sc1ccc([N+](=O)[O-])cn1,10µM*
CCC1S/C(=N/C(=O)NC2CCCCC2)NC1=O (stereo not drawn),-13.6%
COC(=O)c1ccccc1OCC(=O)NC1CCCCC1,-3.9%
CSCC[C@H](NC(=O)c1cccc([N+](=O)[O-])c1C)c1nc2ccccc2[nH]1,-8.9%
COC(=O)C(C(=O)Nc1cccc(C)n1)C1CCCCCC1 (stereo not drawn),4.7%
CCCNC(=O)COc1ccc2c(=O)c(Oc3ccccc3F)coc2c1,-27.5%
Cc1ccc(S(=O)(=O)c2cc3c(=O)n4ccccc4nc3n(CC3CCCO3)c2=N)cc1C (stereo not drawn),?
CCC(CC)C(=O)Nc1cccc(C(=O)N2CCCCCC2)c1,-14.9%
CSCCC(NC(=O)C1CCC(C)CC1)C(=O)N1CCN(c2ccccn2)CC1 (stereo not drawn),-11.3%
O=C(O)C1C2CCC(O2)C1C(=O)NCc1ccc(Cl)cc1 (stereo not drawn),0.0%
CCOC(=O)Cn1c(=O)c(-c2ccccc2NC)nc2ccccc21,-6.3%
COc1cnc(-c2ccccc2)nc1Oc1ccc(C(C)(C)C)cc1,-8.4%
CCCCCCC(=O)Nc1nc(C)c(-c2csc(Nc3cccc(OC)c3)n2)s1,-29.3%
COc1ccccc1CNC(=O)c1cnc2ccccn2c1=O,-20.3%
Cc1csc(N(C(=O)c2cccc(S(=O)(=O)N(C)C)c2)c2ccccc2)n1,-15.2%
NC1C=CC=C(C(=O)O)C1 (stereo not drawn),-20.3%
CC(C)CC(=O)N1CCC(O)(CS(=O)(=O)Cc2ccc(Cl)cc2)CC1,-9.5%
COc1cccc(-c2cc(=O)c3cc(NC(=O)c4ccc(N(C)C)cc4)ccc3[nH]2)c1,?
CCCSc1nnc(NC(=O)Nc2ccccc2)s1,0.6%
COc1ccc(OC)c(C(=O)COC(=O)CNC(=O)c2ccccc2)c1,-16.7%
COc1ccc(NC(=O)c2ccco2)cc1NC(=O)c1ccc(Br)o1,-18.6%
NC(=O)C1CCCN(S(=O)(=O)c2ccccc2)C1 (stereo not drawn),-0.8%
COC(=O)CCCOc1ccc(Cl)cc1Cl,-29.7%
CCC(C)(C)n1nnnc1C(c1cc2cc(OC)c(OC)cc2[nH]c1=O)N1CCc2ccccc21 (stereo not drawn),-27.7%
CCN(Cc1ccccc1)S(=O)(=O)c1cc(C(=O)NC2CCCCCC2)ccc1OC,-11.6%
CCCCNC(=O)CCNS(=O)(=O)c1ccc(C)cc1,-0.6%
O=C1c2ccccc2C(O)(Cc2ccccc2)N1CCCN1CCOCC1 (stereo not drawn),-5.8%
COC(=O)C1=C(N)Oc2cc(C)n(Cc3cccnc3)c(=O)c2C1c1ccc(OC)c(OC)c1OC (stereo not drawn),-6.8%
CCCC(=O)Nc1c(O)c2ccccc2[nH]c1=O,-26.9%
O=c1[nH]c(=O)n(-c2ccc(F)cc2)c2c1C(C(F)(F)F)(C(F)(F)F)N=C(c1ccc(F)cc1)N2,-6.0%
CCn1cc(C(=O)Nc2ccc(OC)c(OC)c2)c2cc(OC)c(OC)cc2c1=O,4.3%
Cc1nn(CC(O)COc2ccc3c(c2)CCC3)c(C)c1C (stereo not drawn),-10.0%
CCN(c1ccc(NC(=O)COC(=O)c2ccc(C)c(S(=O)(=O)N3CCOCC3)c2)cc1)C(C)C,-10.4%
CC(=O)c1cccc(NC(=O)N2CCCC2C(=O)NCc2ccccc2)c1 (stereo not drawn),-2.8%
Cc1cc(C)c(S(=O)(=O)O)c(C)n1,1.2%
CC1Cc2ccccc2N1Cc1nc2cc(Cl)ccc2c(=O)[nH]1 (stereo not drawn),-23.0%
CC1CC(C)CN(CCCn2c(=S)[nH]c3ccccc3c2=O)C1 (stereo not drawn),-7.9%
CCOC(=O)c1c(NC(=O)CCN2C(=O)c3ccccc3C2=O)sc(C(=O)OC(C)C)c1C,-24.8%
CN(C1CCS(=O)(=O)C1)S(=O)(=O)c1ccc(N2CCCC2=O)cc1 (stereo not drawn),-0.5%
O=C(CN1C2=NCCN2c2ccccc21)N1CCOCC1,2.6%
O=C(NC1CCCCCCC1)c1ccco1,?
COCCn1c(=NC(=O)CSC(C)=O)sc2cc(OC)ccc21,-7.0%
Cc1csc(NC(=O)CCc2c(C)nc3cc(-c4cccc(F)c4)nn3c2C)n1,?
O=C(Nc1nc(-c2ccncc2)cs1)c1ccc(S(=O)(=O)N2CCOCC2)cc1,-11.3%
CC(CN(C)Cc1ccccc1)OC(=O)c1ccc2c(c1)OCCO2 (stereo not drawn),-5.6%
CN(C)c1cc(O)c(C(=S)Nc2ccccc2)c(N(C)C)c1,-10.4%

# Next section.
SMILES,HPGD block
CCOC(=O)c1cc2cc(C)ccc2[nH]1,?
CCc1nnc(NC(=O)c2ccncc2)s1,-20.8%
COc1cc(C(=S)N2CCCC2)cc(OC)c1O,20µM*
COc1ccc(Sc2nc3ccccc3n3c(C(F)(F)F)nnc23)cc1,?
Oc1c(I)cc(I)c2cccnc12,?
O=C(NC(=S)Nc1ccc2oc(=O)ccc2c1)c1ccc(-c2cccc(Cl)c2Cl)o1,-26.0%
O=C(Cn1nnc(-c2ccccc2Cl)n1)N/N=C/c1ccc(-c2cccc(Cl)c2)o1,?
CCn1nc(C)c(C(=O)Nc2cc(Oc3ccc(Cl)cc3)cc([N+](=O)[O-])c2)c1C,-20.1%
CCOC(=O)C1=C(C)Nc2nnnn2C1c1ccccc1Cl (stereo not drawn),-10.9%
COc1ccc(NC(=O)COC(=O)C(CC(C)C)N2C(=O)C3CC=CCC3C2=O)cc1Cl (stereo not drawn),-28.6%
COc1cc2c(CCNC(C)=O)c[nH]c2cc1Cl,-9.8%&-10.2%
O=C(NN1C(=O)C2C(c3ccccc3)C=CC(c3ccccc3)C2C1=O)c1cccc(Br)c1 (stereo not drawn),-16.3%
O=C(CN1C(=O)CSC1=O)Nc1ccccc1N1CCOCC1,-8.0%
COc1cc(OC)c(C2C(C#N)=C(N)Oc3cc(C)n(CCCN4CCOCC4)c(=O)c32)cc1OC (stereo not drawn),-10.3%
O=C(c1cccs1)N1N=C(c2ccccc2)CC1c1ccc(O)cc1 (stereo not drawn),-6.8%
O=C(O)c1ccccc1S(=O)CCO (stereo not drawn),-8.5%
CCc1ccc2nc(SCC(=O)N(CC)CC)c(C#N)cc2c1,-10.1%
O=C(Nc1ccc(Cl)cc1)Nc1ccc2c(c1)N1CCN=C1S2,-5.5%
COc1cccc(-n2c(CNc3ccc(F)cc3)nnc2SCC(N)=O)c1,-3.5%
CCC(=O)c1ccc2ncccc2c1,-2.3%
Cn1cccc1C(=O)N1CCC2(CC1)CCN(c1ccc(-c3ccccc3)cc1)CC2,3.2%
Cc1ccc(C(=O)n2c(=S)nc3ccccn32)cc1,31.6µM*
